# Vaccinia Venus: qHTS for Stage-Specific Inhibitors of Vaccinia Orthopoxvirus: Venus Reporter Primary qHTS | AID 720580, 2013 | Potency, µM (doses to about 36.5 µM), for the others: at the highest dose activity change, negative = inhibition, most hits filed as inhibitors | actives 0.46% (n = 330,000) | Vaccinia virus Venus reporter expression, fluorescence; active means well fitted inhibition curve with a large enough effect; inconclusive means small, poorly fitted or top-dose-only effect; inactive means no such curve, though single readings can be large or run the other way; tested in A549 cells; also: nearly all actives have a fitted effect of over 30% in size; inactives centre near -10
# VACV mCherry inh: qHTS for Stage-Specific Inhibitors of Vaccinia Orthopoxvirus: mCherry Reporter Primary qHTS; actives 0.63% (n = 310,000); AID 720579, 2013; Vaccinia virus mCherry reporter infection, fluorescence; about a quarter of the inactives have no number; Potency, µM (doses to about 36.5 µM), for the others: top-dose activity change, negative = inhibition, usual class: inhibitors; active = well fitted inhibition curve with a large enough effect; inconclusive = small, poorly fitted or top-dose-only effect; inactive = no such curve, though single readings can be large or run the other way; tested in A549 cells; also: nearly all actives have a fitted effect of over 35% in size; inactives centre near -10
# Active calls of the source: *; i = inactive; ? = inconclusive; / = not tested or not shown; & = joins results of further samples; [ ] = another dose, or the depositor's remark. % is scaled to controls: 0 for no effect and ±100 for the full control effect; potency is read from the fitted curve at half-maximal effect. Hits appear at their usual frequency, and some 0.87% of all compounds hit somewhere here.
Compound,Vaccinia Venus,VACV mCherry inh
Cc1ccc2c(c1)N(CC(=O)N(Cc1ccc3c(c1)OCO3)CC1CCCO1)C(=O)C(C)O2 (centres undefined),2%,-3%
COc1cccc(CC(=O)OC(C)C(=O)Nc2ccc(N3CCOCC3)cc2)c1 (centres undefined),-4%,-16%
COc1ccc(S(=O)(=O)NCC2CCCO2)cc1C(=O)O (centres undefined),-16%,i
CN1CCC(NC(=O)c2cccs2)CC1,-4%,4%
Cc1ccccc1C(=O)N[C@H](C(=O)Nc1ccc(Cl)c(Cl)c1)C(C)C,-4%,-15%
COc1ccc(CNC(=O)CSc2nc3nc(C)cc(C)n3n2)cc1,9%,i
O=C1CN=C(c2ccccc2)c2cc(Cl)ccc2N1Cc1ccc(Cl)cc1,?,?
COc1cccc(NS(=O)(=O)c2cc3c4c(c2)C(C)C(=O)N4CCC3)c1 (centres undefined),-11%,-11%
CC1CC(C)CN(S(=O)(=O)c2ccc(F)c(C(=O)Nc3ccc(Cl)cc3F)c2)C1 (centres undefined),-4%,-3%
Cn1c(=O)c2nc(Cl)c(-c3ccccc3)nc2n(C)c1=O,0%,0%
O=c1[nH]c(SCc2ccccc2)nc2c1CCCC2,-17%,-17%
Cc1cccc2cc(C(c3nnnn3Cc3ccccc3)N3CCCc4ccccc43)c(=O)[nH]c12 (centres undefined),-4%,2%
O=C1CN(C(=O)CNC(=O)c2ccc(Cl)cc2Cl)CCN1,5%,7%
Cc1ccc(NC(=O)CNC(=O)C23CC4CC(CC(C4)C2)C3)nc1,-14%,i
Nc1nc2nccc(-c3ccccn3)n2n1,-7%,-13%

# Later entries.
Compound,Vaccinia Venus,VACV mCherry inh
COc1ccc(CCn2c(O)c(C=Nc3ccccc3F)c(=O)[nH]c2=O)cc1OC,-8%,i
CCOC(=O)n1c(=O)oc2ccccc21,-4%,-17%
O=C(CCC1N=C2c3ccccc3N=C(SCc3ccc(F)cc3)N2C1=O)NCCc1ccccc1 (centres undefined),-8%,-17%
Cc1c(C(=O)NCCCN2CCOCC2)oc2ccc(S(=O)(=O)N3CCOCC3)cc12,-4%,3%
COc1ccc(-n2c(C)cc(C(=O)NC3CCCCC3)c2C)cc1,?,-22%
O=C(Nc1ccc(S(=O)(=O)N2CCc3ccccc32)cc1)c1ccc2c(c1)OCO2,?,?
CCCCC(C(=O)NC(C)c1ccccc1)C(=O)NC(C)c1ccccc1 (centres undefined),-7%,-11%
c1ccc2nc(-c3ccc4c(c3)OCO4)ccc2c1,-1%,i
CCN(c1ccccc1)S(=O)(=O)c1ccc(OC)c(NC(=O)C2CCC2)c1,-23%,-5%
CCOC(=O)NC(=O)COC(=O)CNC(=O)c1cccc(OC)c1,-5%,2%
CCOC(=O)c1[nH]c(C)c(C(=O)NC2CCCC2)c1C,-3%,-7%
CCCCn1c(N)c(N(CCOC)C(=O)CCCn2c(=O)oc3ccccc32)c(=O)[nH]c1=O,-2%,i
CCCC(=O)Nc1ccc(S(=O)(=O)Nc2cc(C)nc(C)n2)cc1,-5%,i
Cc1ccc(N2CC(C)Cn3c2nc2c3c(=O)n(CC(=O)O)c(=O)n2C)cc1 (centres undefined),-4%,1%
Cc1c(Cl)cccc1-n1c(SCC(=O)N2CCC(C(=O)O)CC2)nnc1-c1ccncc1,-1%,i

# Other structures:
Compound,Vaccinia Venus,VACV mCherry inh
Cc1cc(C(=O)CN2C(=O)NC(C)(c3cc(F)ccc3F)C2=O)c(C)n1C1CC1 (centres undefined),-11%,-9%
CC(=C\c1ccco1)/C=C1/SC(=S)N(CC(=O)O)C1=O,10%,-15%
Cn1nc(C(F)(F)F)c(-c2cccc(C(F)(F)F)c2)c1NC(=O)CSCC(=O)O,10%,-11%
CC(=O)NCCNC(=O)c1ccc(CSc2ccc(Cl)cc2)cc1,0%,0%
CSCCC(=O)N1CCCC(CNC(=O)c2ccccc2Cl)C1 (centres undefined),-9%,-13%
COCc1c(C(=O)NC2CCCCC2)cnn1-c1nccc(-c2ccccc2OC)n1,-2%,-11%
Cc1nn(Cc2c(Cl)cccc2Cl)c(C)c1NC(=O)c1cnn2c(C(F)F)cc(-c3ccccc3)nc12,-16%,-21%
Cc1cc(C)c2c(c1)NC(C(=O)O)C1CC=CC21 (centres undefined),9%&21%,13%
Cc1ccc(NC(=O)CS(=O)CC(=O)NC2CCN(Cc3ccccc3)CC2)c(C)c1 (centres undefined),-11%,-10%
CS(=O)(=O)NC1c2cccc3cccc(c23)C1Sc1nncn1/N=C/c1ccco1 (centres undefined),-15%,i
Cc1cccc(N2C(S)=C(C#N)C(=O)NC23CCCCC3)c1,-2%,-6%
O=C(COC(=O)c1ccc2ncsc2c1)Nc1cccc(Cl)c1,-12%,i
COc1ccc(CCNC(=O)C(=O)NCC2OCCN2S(=O)(=O)c2ccc(C)cc2)cc1 (centres undefined),-29%,-23%
Cc1cccc(CSc2nnc(-c3cnccn3)n2C)c1,-7%,-6%
CC(=O)OC1CC2(C)C(C(C)=O)CCC2C2CCC3=CC(=O)CCC3(C)C12 (centres undefined),-1%,-3%

# The list goes on; the last 3 above are carried over.
# Each structure is followed by: Vaccinia Venus	VACV mCherry inh
COc1ccc(CCNC(=O)C(=O)NCC2OCCN2S(=O)(=O)c2ccc(C)cc2)cc1 (centres undefined)
  -29%	-23%
Cc1cccc(CSc2nnc(-c3cnccn3)n2C)c1
  -7%	-6%
CC(=O)OC1CC2(C)C(C(C)=O)CCC2C2CCC3=CC(=O)CCC3(C)C12 (centres undefined)
  -1%	-3%
CCOC(=O)c1ccc(NC(=O)c2cccc(S(=O)(=O)N3CCN(C(C)=O)CC3)c2)cc1
  6%	-5%
CC(C)(C)c1ccc(/C=N/NC(=O)CN2CCS(=O)(=O)CC2)cc1
  -13%	i
Cc1cc(C)cc(NC(=O)CN2CCC(C(=O)c3ccccc3)CC2)c1
  -9%	?
CNC(=O)c1c(NC(=O)CCS(=O)(=O)c2ccccc2)sc(C)c1C
  0%	-13%
CSCCC(NS(=O)(=O)c1ccccc1F)C(=O)NCC(C)(C)N1CCOCC1 (centres undefined)
  -4%	i
Cc1cn([C@H]2C[C@H](O)[C@@H](/C=C/C(=O)NCCc3ccc4ccccc4c3)O2)c(=O)[nH]c1=O
  2%	7%
O=C(NCc1ccco1)c1ccc2c(c1)N(Cc1ccc(Cl)cc1)CCS2
  -12%	-4%
Cc1ccc(S(=O)(=O)N(C)C[C@@H]2OCCCC[C@H](C)Oc3ccc(NC(=O)Nc4ccc(F)cc4)cc3C(=O)N([C@H](C)CO)C[C@H]2C)cc1
  ?	-4%
COc1cc(/C=C2\NC(=S)N(C)C2=O)ccc1O
  55%[activator]	-25%
CCNc1nc(NCC)n2c(SCC(=O)Nc3cc(OC)ccc3OC)nnc2n1
  -10%	-12%
COc1ccc(CCN2C(=O)C(Oc3ccccc3)C2c2ccc3c(c2)OCO3)cc1 (centres undefined)
  9%	i
Cc1cc(F)ccc1NS(=O)(=O)c1c(C(=O)N2CCOCC2)c(C)n(C)c1C
  -3%	-11%
COc1ccccc1N(C)S(=O)(=O)c1ccc(C(=O)Nc2ccncc2)cc1
  -18%	i
Cc1cc(C)n(-c2nc3ccccc3nc2Nc2cccc(C(F)(F)F)c2)n1
  7%	2%
CC1(C)Cc2c(c(-c3ccccc3Cl)[nH]c(=O)c2C#N)CO1
  -23%	/
N=c1oc2c3c4c(cc2cc1C(=O)Nc1ccccc1)CCCN4CCC3
  34%[activator]	-4%
CCN1C(=O)/C(=C/C=C2/CCCN2C)OC1=S
  -2%	-8%
O=CNc1cc(-c2ccc(C(=O)NC3CC3)cc2)cn2c(-c3ccccc3)cnc12
  ?	?
O=C(NCc1ccncc1)[C@@H]1CCCN1C(=O)[C@@H]1CCCN1C(=O)c1cccc2ccccc12
  9%	i
COc1ccc(CC(=O)NCc2ccc3c(c2)CCN3C(=O)c2ccccc2)cc1OC
  -14%	-26%
CC(C)N(C(=O)Cn1cc(S(=O)(=O)CC(=O)NCc2ccccc2)c2ccccc21)C(C)C
  -13%	i
COc1ccc(N2CCN(C(=O)COC(=O)COc3cc(C)cc(C)c3)CC2)cc1
  -11%	i
C=CCc1cccc(/C=N/NC(=O)C(C)Nc2ccc(C)cc2)c1O (centres undefined)
  ?	-29%
CCOc1cc(C)cc2oc(=O)cc(-c3ccccc3)c12
  -5%	-11%
Cc1ccc(S(=O)(=O)N(CC(=O)N2CCOCC2)c2ccccc2F)cc1
  -5%	-11%
CCCOC(=O)c1ccc(NC(=O)c2ccoc2C)cc1
  -15%	-15%
Cc1cccc(NS(=O)(=O)c2ccc(C)c(C(=O)NCc3ccncc3)c2)c1
  -3%	?
CCOc1ccc2[nH]c(=O)c(CN(CCO)C3(c4nnnn4C4CCCCC4)CCCCC3)cc2c1
  -10%	-10%
CC1(C)N=C(c2cccs2)C(C)(C)N1O
  2%	/
O=C(CCC1CCCN(C(=O)c2ccoc2)C1)NCc1ccc(F)c(F)c1 (centres undefined)
  -17%	i

# The listing continues:
# Each structure is followed by: Vaccinia Venus	VACV mCherry inh
O=C(c1ccco1)N1CCN(C/C=C/c2ccccc2)CC1
  -15%	-22%
COc1cccc(-n2nnc3c(=O)n(Cc4cccc(C)c4)cnc32)c1
  -17%	i
CCNc1nc(N)nc(-c2cc(Cl)ccc2OC)n1
  -16%	/
COc1ccc(NC(=O)CSc2ccccc2)cc1S(=O)(=O)N1CCCCC1
  -13%	-19%
O=C(COC(=O)/C=C/c1ccccc1[N+](=O)[O-])NCc1ccco1
  -3%	?
c1ccc(C2NCCc3ccccc32)cc1 (centres undefined)
  -7%	-7%
COc1ccc(N2CC(C(=O)OCC(=O)NCc3ccccc3)CC2=O)cc1 (centres undefined)
  0%	-5%
O=C(c1ccc(-n2c(SCc3cccc(F)c3)nc3ccccc3c2=O)cc1)N1CCOCC1
  3%	-9%
COc1ccc(CC(=O)NNC(=O)c2ccc(NC(C)=O)cc2)cc1
  -8%	-8%
CC1(C(=O)Nc2cnc3ccccc3c2)CCN1Cc1ccccc1Cl (centres undefined)
  6%	-21%
COc1ccc(NS(=O)(=O)c2cc(N=Nc3c(O)[nH]c(=O)[nH]c3=O)ccc2OC)cc1Br
  0%	i
Cc1cc(C)n2nc(SCc3cccc(S(=O)(=O)N(C)C)c3)nc2n1
  -15%	i
Cc1ccc(S(=O)(=O)N2CCCOC2CNC(=O)C(=O)NCCC2=CCCCC2)cc1 (centres undefined)
  ?	?
CC(C)c1cc(C(F)(F)F)n2nc(C(=O)Nc3ccc4c(c3)OCO4)cc2n1
  -21%	-23%
O=C(c1ccc2c(Cl)c3c(nc2c1)CCCC3)N1CCN(c2ccc(F)cc2)CC1
  ?	-23%
CN(C)c1cccc2c1C(=O)c1ccccc1C2=O
  -13%	-21%
CC1(c2nc3ccccc3[nH]2)CCC2=Nc3ccccc3CN21 (centres undefined)
  -8%	-14%
COc1ccc(Br)cc1-c1noc(-c2ccccc2)n1
  -23%	/
CCOC(=O)c1ccc2c(c1)[n+](CC)c(C)n2-c1ccccc1
  -11%	-2%
C=CCNC(=O)c1ccccc1NC(=O)Nc1ccccc1
  -9%	i
Cc1nc(Cl)sc1C(=O)NC(C)c1ccc(Cl)cc1 (centres undefined)
  -9%	-17%
CCC(C)(C)n1nnnc1C(c1cccnc1)N1CCC(Cc2ccccc2)CC1 (centres undefined)
  -16%	-7%
CN1CCN(c2ccc([N+](=O)[O-])cc2C(=O)N2CCCCC2)CC1
  -9%	-11%
O=C(Cc1cccc(NC(=O)C2CCN(C(=O)C3CCCCC3)CC2)c1)Nc1cccc(C(=O)N2CCCC2)c1
  -8%	-11%
O=C(Nc1ccc2oc(=O)ccc2c1)c1ccc(-c2ccccc2[N+](=O)[O-])o1
  -24%[7.34 µM]	-13%[7.34 µM]
CCN(CC)C(=O)c1ccc(C)c(Br)c1
  -11%	-11%
CC(=O)N1CN2CN(C(C)=O)CC(C(=O)c3ccc([N+](=O)[O-])cc3)(C2)C1
  7%	-11%
CCCCC1CCC(C(=O)N2CC(=O)Nc3ccc(F)cc3C2c2ccc(F)cc2)CC1 (centres undefined)
  -20%	-26%
CC1CN(S(=O)(=O)c2cccc(C(=O)OC(C)C(=O)NC3CCCCC3C)c2)CC(C)O1 (centres undefined)
  -2%	-5%
c1ccc(-c2nc(NCC3CC3)nc3ccsc23)cc1
  -4%	i

# Additional records.
# Each structure is followed by: Vaccinia Venus	VACV mCherry inh
O=C(NCc1ccc2c(c1)OCO2)C1CCN(S(=O)(=O)N2CCCCC2)CC1
  7%	-9%
Cc1ccc(-n2nc(C(=O)O)cc2-c2ccccc2Cl)cc1
  -12%	-22%
Cc1ccc(CNC(=O)/C=C/c2cccs2)cc1
  -4%	-7%
COC(=O)C(NC(=O)CSc1nc(N)cc(=O)[nH]1)c1ccccc1 (centres undefined)
  -18%	i
O=C(COC(=O)CCC(=O)c1cccs1)Nc1ccc(S(=O)(=O)N2CCOCC2)cc1
  2%	4%
CCCCOC(=O)Nc1cc(Cl)ccc1C
  -12%	/

# Pulled by compound from the entries so far, 4 records:
# Each structure is followed by: Vaccinia Venus	VACV mCherry inh
COC(=O)C(NC(=O)CSc1nc(N)cc(=O)[nH]1)c1ccccc1 (centres undefined)
  -18%	i
Cc1ccc(CNC(=O)/C=C/c2cccs2)cc1
  -4%	-7%
O=C(COC(=O)CCC(=O)c1cccs1)Nc1ccc(S(=O)(=O)N2CCOCC2)cc1
  2%	4%
O=C(NCc1ccc2c(c1)OCO2)C1CCN(S(=O)(=O)N2CCCCC2)CC1
  7%	-9%

# Source: PubChem
